NPR1 antag – Natriuretic polypeptide receptor (hNpr1) antagonism - Primary qHTS; HEK293 hNpr1 GloSensor cGMP, ANP-stimulated luminescence; Atrial natriuretic peptide receptor 1 (Homo sapiens), P16066; actives 1.6% (n = 76,000); Potency, µM (top dose mostly 46.3 µM), inactives show at the highest dose activity change, negative = inhibition, hits mostly inhibitors; active = well fitted inhibition curve with a large enough effect; inconclusive = small, poorly fitted or top-dose-only effect; inactive = no such curve, though single readings can be large or run the other way;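 also: nearly all actives have a fitted effect of over 60% in size; nearly all hits also lower the signal before the agonist is added; a reference antagonist and vehicle were the controls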
Target sequence (P16066 whole entry, looked up): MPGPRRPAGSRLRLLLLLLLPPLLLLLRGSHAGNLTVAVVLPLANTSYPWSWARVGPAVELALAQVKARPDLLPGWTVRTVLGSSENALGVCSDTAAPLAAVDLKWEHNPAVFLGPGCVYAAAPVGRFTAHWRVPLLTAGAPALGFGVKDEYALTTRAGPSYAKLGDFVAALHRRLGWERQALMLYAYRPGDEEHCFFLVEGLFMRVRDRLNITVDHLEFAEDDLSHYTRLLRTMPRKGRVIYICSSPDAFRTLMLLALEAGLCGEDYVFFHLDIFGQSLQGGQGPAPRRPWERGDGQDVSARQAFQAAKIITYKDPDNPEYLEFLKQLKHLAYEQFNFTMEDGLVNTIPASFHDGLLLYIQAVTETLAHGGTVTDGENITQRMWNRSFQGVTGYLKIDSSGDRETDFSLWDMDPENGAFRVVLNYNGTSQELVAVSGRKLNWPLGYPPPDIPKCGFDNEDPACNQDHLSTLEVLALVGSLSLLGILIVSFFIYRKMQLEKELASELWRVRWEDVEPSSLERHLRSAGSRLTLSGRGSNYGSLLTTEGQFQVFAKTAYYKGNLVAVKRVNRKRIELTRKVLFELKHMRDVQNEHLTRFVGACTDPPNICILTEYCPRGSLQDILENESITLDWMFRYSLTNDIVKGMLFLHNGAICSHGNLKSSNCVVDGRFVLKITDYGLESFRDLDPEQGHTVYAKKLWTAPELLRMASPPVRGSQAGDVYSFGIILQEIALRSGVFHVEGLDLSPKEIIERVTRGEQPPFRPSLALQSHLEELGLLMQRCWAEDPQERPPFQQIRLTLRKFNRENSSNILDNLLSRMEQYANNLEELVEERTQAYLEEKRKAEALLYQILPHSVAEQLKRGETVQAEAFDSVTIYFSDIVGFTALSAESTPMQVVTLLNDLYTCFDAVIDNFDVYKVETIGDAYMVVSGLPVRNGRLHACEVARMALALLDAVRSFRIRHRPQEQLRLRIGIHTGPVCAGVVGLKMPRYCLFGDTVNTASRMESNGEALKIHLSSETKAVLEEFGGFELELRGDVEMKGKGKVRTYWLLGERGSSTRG
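HEK293 cells stably expressing human Npr1 and cGMP GloSensor pGS-40F, loaded 2 h with 2% GloSensor reagent, given compound 30 min at room temperature. Luminescence read before and 20 min after 0.1 nM hNppA.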
Active calls of the source: *; ? = inconclusive; & = joins results of further samples; [ ] = another dose, or the depositor's remark. % is scaled to controls: 0 for no effect and ±100 for the full control effect; potency is read from the fitted curve at half-maximal effect.

The first six entries, to show the layout:
SMILES | NPR1 antag
c1ccc(-c2nnc3ccc(Nc4ccc(N5CCOCC5)cc4)nn23)nc1 | -4.8%[70.6 µM]
Cc1nc2cccnc2n1CC1CCCN(S(=O)(=O)c2cc(F)ccc2F)C1 (configuration not stated) | -29.4%
CNC(=O)N1CCC(C2CCN(C(=O)c3ccc4ccccc4n3)C2)CC1 (configuration not stated) | 9.2%
O=[S+]1([O-])NCC2(CCN(Cc3ccccc3)CC2)Nc2ccccc21 | 0.0%
CC(C)(O)CCc1ccc(C(=O)NCc2noc(-c3ccco3)n2)cc1 | 4.1%
Cc1onc(-c2ccccc2Cl)c1C(=O)N1CCCC2(CNC(=O)O2)C1 (configuration not stated) | 1.9%

The whole of this part, previewed entries included:
SMILES | NPR1 antag
c1ccc(-c2nnc3ccc(Nc4ccc(N5CCOCC5)cc4)nn23)nc1 | -4.8%[70.6 µM]
Cc1nc2cccnc2n1CC1CCCN(S(=O)(=O)c2cc(F)ccc2F)C1 (configuration not stated) | -29.4%
CNC(=O)N1CCC(C2CCN(C(=O)c3ccc4ccccc4n3)C2)CC1 (configuration not stated) | 9.2%
O=[S+]1([O-])NCC2(CCN(Cc3ccccc3)CC2)Nc2ccccc21 | 0.0%
CC(C)(O)CCc1ccc(C(=O)NCc2noc(-c3ccco3)n2)cc1 | 4.1%
Cc1onc(-c2ccccc2Cl)c1C(=O)N1CCCC2(CNC(=O)O2)C1 (configuration not stated) | 1.9%
COc1ccc(C(=O)NC2CCN(c3cc(-c4ccc(F)cc4)[nH]n3)C2)c(C)c1 (configuration not stated) | -11.4%
O=C(O)C(c1ccc2c(c1)OCCO2)N1CCCN(c2ncccn2)CC1 (configuration not stated) | 5.3%
Cn1ccnc1CN1C[C@@H](F)[C@@H](OCc2nc3ccccc3[nH]2)C1 | 7.4%[70.6 µM]
CN(Cc1noc(C2CCCC2)n1)c1cc(C2CC(O)C2)ncn1 (configuration not stated) | ?
CN(C)S(=O)(=O)N1CCOC(c2ccc(Cl)c(Cl)c2)C1 (configuration not stated) | -14.8%
Cc1noc(-c2cccs2)c1C(=O)NCc1ccccc1Cl | 3.6%
Cc1ccc(C(=O)N2CCC(c3nn(-c4ccc(Cl)cc4)c(=O)[nH]3)CC2)cc1 | -20.2%
c1cn(-c2ccc(OCC3CCCO3)cc2)c(-c2cc3n(n2)CCNC3)n1 (configuration not stated) | 1.8%
CCn1ccc(C(=O)N2CCc3c(nc(-c4ccc(OC)cc4)[nH]c3=O)C2)n1 | 2.1%
O=C(c1cc(-c2ccc(O)cc2)n[nH]1)N1CCCC(CCc2ccc(F)cc2)C1 (configuration not stated) | ?
Cc1noc([C@@H](C)NC(=O)NC2(c3ccccc3)CCOCC2)c1C(=O)O | 0.2%[70.6 µM]
COc1cc(CNC(=O)c2cc3cn(C(C)C)cc3s2)cc(OC)c1 | -19.8%
O=C(Nc1ccc([C@H]2OCC(=O)N(Cc3ccc(F)cc3)[C@@H]2CO)cc1)c1ccco1 | -6.1%[70.6 µM]
O=c1[nH]c(C2CCCN(Cc3ccc(-c4ccccc4)cc3)C2)nc2ccc(F)cc12 (configuration not stated) | ?
COc1ccccc1C(=O)N1CCN(c2cc(-c3cccs3)[nH]n2)CC1 | 0.6%
COC[C@H]1CCCN1Cc1nc(C2(O)CCN(C(C)C)CC2)cs1 | 2.0%[70.6 µM]
O=C(Cc1cccc(F)c1)N1CCC(c2nc(C3CCOCC3)no2)CC1 | -4.4%
COc1ccc(CN2C(=O)CO[C@H](c3ccc(NS(=O)(=O)c4ccc(F)cc4)cc3)[C@H]2CO)cc1 | 1.2%
O=C(Nc1cccc(-c2nnc3n2CCCC3)c1)c1ccccc1F | 1.7%
COC[C@H]1CCCN1Cc1nc(C2(O)CCN(CC3CCCCC3)CC2)cs1 | -1.0%[70.6 µM]
O=C1CCN(C(=O)Nc2ccccc2)CCCC(c2nc(-c3cccnc3)no2)CCN1 (configuration not stated) | -2.5%
O=C(c1ccc(C(F)(F)F)cc1)N1CCc2nc(-c3ccccc3)nc(-c3ccc(Cl)cc3)c2C1 | 5.2%
COc1ccc(CN2Cc3cc(NC(=O)c4ccc([N+](=O)[O-])cc4)ccc3OC(C)C2=O)c(OC)c1 (configuration not stated) | -1.2%
CNC(=O)[C@@H]1CN(C(=O)Cc2c(C)noc2C)C[C@H]1c1nc(C)no1 | 1.4%

Carrying on.
SMILES | NPR1 antag
CC(C)CCN1CCOc2cc(C(=O)NCCOc3ccccc3)ccc2C1 | -11.3%[70.6 µM]
Cc1ncc2n1C(=O)N(C1CCN(Cc3ccccn3)CC1)C2 | -1.5%&5.7%[70.6 µM]
c1ccc2c(c1)CC(N1CCC(CN(CCCn3cccn3)CC3CCCO3)CC1)C2 (configuration not stated) | -1.9%
Cc1ccc(C(=O)NC2CCCN(c3cc(-c4ccccc4)[nH]n3)C2)cc1 (configuration not stated) | -17.2%
Cc1noc2c(NCCN(C)C)cc(-c3cccc(C(F)(F)F)c3)nc12 | 4.9%[70.6 µM]
CC(C)N[C@@H]1CO[C@H](CNC(=O)c2ccccc2)[C@H]1O | 0.6%[70.6 µM]
Cc1ccccc1NC(=O)Nc1ccnn1C1CCN(C(=O)c2ccc[nH]2)CC1 | 2.3%
Fc1ccccc1-c1cnc2n[nH]c(-c3ccc4c(c3)OCO4)c2n1 | -21.4%[70.6 µM]
CC(Cn1cccn1)C(=O)N1CCc2[nH]nc(-c3ccc(Cl)cc3)c2C1 (configuration not stated) | -12.1%
COCc1ccc2c(c1)c(OC(C)(C)C(=O)Nc1ccn(C)n1)nn2Cc1cccc(OC)c1 | 1.3%
CN(C)c1nc2c(c(=O)[nH]1)CCN(Cc1cccc(C(F)(F)F)c1)CC2 | -13.7%
COc1ccc(-c2cc(C(=O)NCc3c(C)cc(C)[nH]c3=O)c3c(c2)N(C)CCO3)cc1 | -18.3%[70.6 µM]
CCCN1CCN(C(=O)c2c(C)oc3c2CN(Cc2ccc(C)cc2)CC3)CC1 | -9.9%
COc1ccc(C(=O)N2CCC3(CC2)NC(=O)N(c2ccccc2)N3)cn1 | 13.0%
c1ccc(CN2CC[C@H](c3nc4ccccc4o3)C2)nc1 | -6.8%[70.6 µM]
CN(C)C(=O)c1ccc(N2CC3CC(C2)[C@H]2CCCC(=O)N2C3)nc1 (some centres not stated) | 0.5%
COC(=O)[C@H]1CN(C(=O)NC(C)C)CCN1S(C)(=O)=O | 3.7%[70.6 µM]
CN(C)c1ccc(CNC2(Cc3cc(-c4ccc(F)cc4)on3)COC2)cc1 | -13.3%[70.6 µM]
O=C(N[C@H]1CCN2C(=O)c3cc(-c4cccs4)ccc3NC(=O)[C@H]12)c1cccc(F)c1 | -10.5%
COCc1ccc2c(c1)c(OC(C)(C)C(=O)Nc1ccccn1)nn2CCC(C)C | -21.3%[70.6 µM]
COCC(=O)NC[C@H]1CCN(Cc2ccc3c(c2)CCO3)C[C@H]1N(C)C | 0.8%
Fc1ccccc1OCc1nc(C2CCCNC2)no1 (configuration not stated) | 9.6%
O=C(NCc1cccc(F)c1)[C@@H]1C[C@@H](c2ccc(F)cc2)N([S+](=O)([O-])c2ccccc2)C1 | -13.9%
O=C(CCc1cc2n(n1)CCCNC2)Nc1ccc2c(c1)OCCO2 | -14.7%
Cc1cncc(C(=O)N2C[C@H]3OC(=O)N(CCc4cccc(Cl)c4)[C@H]3C2)c1 | 5.0%
O=c1[nH]c(N2CCOCC2)nc2c1CCN(Cc1ccc(F)c(F)c1)CC2 | 2.5%
CC(=O)N1CCCN(C(=O)c2cnc3c(c2)N(Cc2ccccc2)CCC3)CC1 | 0.1%[70.6 µM]
COCc1cccc(-c2n[nH]c3c2CC(=O)N(CCc2ccncc2)C3)c1 | 1.3%[70.6 µM]
O=C(N[C@@H]1CCC[C@@H]1C(=O)N1CCCCC1)c1ccncc1 | 5.3%
O=C(Nc1ccc(C(F)(F)F)cc1)N[C@@H]1C[C@H](CO)[C@@H](O)[C@H]1O | -3.7%[70.6 µM]

(list continues)
SMILES | NPR1 antag
COc1ccccc1N1CCN(c2ncccc2CNC(=O)c2ccco2)CC1 | -17.7%
Cc1ccc(C)c(CN2CCC(CNC(=O)c3occc3C)C2)c1 (configuration not stated) | 4.1%
CCc1ccc(NC(=O)Cn2c(N3CCc4ccccc4C3)nc(C)cc2=O)cc1 | -17.3%
Cn1c(CO[C@H]2CN(C(=O)C3CCOCC3)C[C@H]2F)nc2ccccc21 | -1.2%[70.6 µM]
Cc1ccc(-n2nc3n(c2=O)CCN(C(=O)c2ccccc2Cl)C3)cc1 | -3.0%
O=S(=O)(Nc1cccn2nc(C3CC3)nc12)c1cccnc1 | 6.8%
O=C(N[C@H]1CCN2C(=O)c3cc(-c4ccccc4F)ccc3NC(=O)[C@H]12)c1cnccn1 | 1.2%[70.6 µM]
Cc1ccc(CN2CCc3nn(Cc4ccccc4)c(=O)n3CC2)nc1 | 1.8%
Cc1noc(-c2cn(C3CCN(C(=O)C(C)Oc4ccc(Cl)cc4)CC3)nn2)n1 (configuration not stated) | 1.8%
COc1ccccc1N1CCN(C(=O)C[C@@H]2CCNC[C@@H]2Cc2cc(-c3ccc(C(C)(C)C)cc3)on2)CC1 | -1.3%
COc1cccc(CNC(=O)Nc2cccn3nc(C)nc23)c1 | 1.4%
O=C(c1ccnnc1)N1CCC2(CCN(Cc3ccccn3)CC2)C(CO)C1 (configuration not stated) | 4.8%
O=C(c1cccnc1)N1CCC2(CC1)OCCN(Cc1ccccc1)C2=O | ?
COc1cc(Cl)ccc1OCc1nnc(C(=O)N2CCC[C@@H]2c2nc3ccccc3[nH]2)n1-c1ccccc1 | -3.1%
COc1cc(OC)cc(C(=O)N2CCC3(CC2)NC(=O)N(c2cccc(F)c2)N3)c1 | -1.2%
CCn1ncc(N2CCCC(CC(=O)NCc3ccc(OC)cc3)C2)cc1=O (configuration not stated) | -15.1%
COc1ccc(OC)c(NC(=O)Nc2cccc(-c3ccc(N4CCCCC4)nn3)c2)c1 | 12.6µM*
O=C(Cc1cccnc1)N1CCC(N2C(=O)C(O)C23CCCCC3)CC1 (configuration not stated) | 2.6%
O=C(NCC1CC1)c1cn(C2CN(C(=O)C3CCOC3)C2)nn1 (configuration not stated) | -9.7%
COc1ccc(CN[C@@H]2CO[C@H](CNC(=O)c3ccccc3)[C@H]2O)cc1 | 3.8%[70.6 µM]
Cc1noc([C@@H]2C[C@H](NC(=O)Nc3ccccc3)CN2C)n1 | 6.8%[70.6 µM]
O=C(N1CCC2(CC1)CC(Cc1nc(-c3cnccn3)no1)CCO2)C1(c2ccccc2)CC1 (configuration not stated) | 0.8%
Cc1ccc(-c2nnc([C@H]3CCN(c4ncccn4)C3)o2)cc1 | -1.8%[70.6 µM]
O=C(CCc1conc1-c1ccccc1F)NCc1cccc(Br)c1 | 0.8%
CC(C)CN1C(=O)c2cccn2CC1CNC(=O)c1ccnn1C (configuration not stated) | 4.3%
O=C(c1ccncc1)N1CCC2(CC1)CC(N1CCCC1)CCO2 (configuration not stated) | 9.0%
Cc1ccc(C2Cn3cnc(C(=O)N4CCC(C(=O)NCCCc5ccccc5)CC4)c3CO2)cc1 (configuration not stated) | 4.5%
C[C@@H]1CN(C2(C(=O)NCc3n[nH]c4c3CCC4)Cc3ccccc3C2)C[C@H](C)O1 | 3.0%
COCCN1C(=O)c2ccccc2C(C(=O)Nc2nnc(C3CC3)s2)C12CCCCC2 (configuration not stated) | 7.5%
Cc1cccc(C(=O)N2CCCN(c3cc(-c4ccc(Cl)cc4)[nH]n3)CC2)c1 | -29.8%

Next records:
SMILES | NPR1 antag
COC[C@@H]1CN(C(=O)c2ncccc2C)C[C@H]1c1ccncc1 | 1.2%
Cc1nc(N2CCC(NC(=O)c3cc4ccccc4[nH]3)CC2)cc(C(F)(F)F)n1 | 7.94µM*
OC1(c2csc(CN3CCN(c4ccccn4)CC3)n2)CCN(Cc2ccc(F)cc2)CC1 | -1.9%
COc1ccc(C(=O)Nc2nc3c(s2)C[C@@H]2[C@](C)(CO)[C@H](O)CC[C@@]2(C)[C@@H]3CC(=O)NC(C)C)cc1 | -0.8%
Cc1ccn2c(C(=O)N3CCCC(c4[nH]ncc4-c4ccccc4)C3)nnc2n1 (configuration not stated) | -13.3%
CC(C)CCN1CCOc2cc(C(=O)NCc3cccs3)ccc2C1 | -4.9%[70.6 µM]
CCN(CC)c1ncccc1CNC(=O)CN1CC(c2ccccc2)CC1=O (configuration not stated) | 0.8%
COCCN1CCC(N2CCN(C(=O)CCCc3ccccc3)CC2)C1=O (configuration not stated) | 2.5%
COc1ccc2[nH]c3c(c2c1)CCNC31CCN(C(=O)c2cc(C)n(C)n2)CC1 | -6.9%
Cc1cc(C(=O)NCCc2noc(-c3cccnc3)n2)nn1C | -4.1%
COCCN1C(=O)CS(=O)(=O)C12CCN(C(=O)C1CC1)CC2 | -5.8%
COCCN1C(=O)c2cccn2CC1CNC(=O)c1n[nH]c(=O)c2ccccc12 (configuration not stated) | 5.1%
CS(=O)(=O)Nc1ccc(C2(C(=O)NC3CCCCCC3)CCCCC2)cc1 | -1.3%
Cc1ccc(CCNC(=O)C2CCN(c3cc(C(F)(F)F)nc(C)n3)CC2)cc1 | -23.0%
CC(=O)N1CCC(N[C@@H]2CO[C@H](CNC(=O)CC(C)(C)C)[C@H]2O)CC1 | -2.8%[70.6 µM]

Some of the compounds tested. The share of hits here may be higher or lower than overall.
